# VACV mCherry inh = vaccinia inhibition (mCherry reporter) | Vaccinia virus mCherry reporter infection, fluorescence; about a quarter of the inactives have no number | 310,000 tested, 0.63% active | Potency, µM (titrated, usually from 36.5 µM), without a hit: at the highest dose activity change, negative = inhibition, hits mostly inhibitors; active = well fitted inhibition curve with a large enough effect; inconclusive = small, poorly fitted or top-dose-only effect; inactive = no such curve, though single readings can be large or run the other way; tested in A549 cells; also: nearly all actives have a fitted effect of over 35% in size; inactives centre near -10
# Vaccinia Venus = vaccinia inhibition (Venus reporter); Vaccinia virus Venus reporter expression, fluorescence; Potency, µM (doses to about 36.5 µM), for inactives: at the top dose activity change, negative = inhibition, usual class: inhibitors; 330,000 tested, 0.46% active; active means well fitted inhibition curve with a large enough effect; inconclusive means small, poorly fitted or top-dose-only effect; inactive means no such curve, though single readings can be large or run the other way; tested in A549 cells; also: nearly all actives have a fitted effect of over 30% in size; inactives centre near -10
# An asterisk follows results filed as active; i = inactive; ? = inconclusive; . = not tested or not shown; & = joins results of further samples; [ ] = remark or other dose. % is scaled to controls: 0 for no effect and ±100 for the full control effect; potency is read from the fitted curve at half-maximal effect. An unsorted share of the library. Share with any hit: about 0.82%.
SMILES,VACV mCherry inh,Vaccinia Venus
CCN(CC)S(=O)(=O)c1ccc2oc(Nc3ccccc3)nc2c1,?,5.8%
C#CCN1C(=O)C(O)(CC(=O)c2ccc(OC)c(OC)c2)c2cc(Br)ccc21 (stereo not drawn),-9.7%,-11.6%
O=C(O)/C=C/c1ccc(S(=O)(=O)Nc2ccccc2C(=O)Nc2ccc(F)cc2)cc1,-14.4%,2.6%
CC1CCN(C(=O)CSc2nc3c(c(=O)n2C)SC(C)C3)CC1 (stereo not drawn),-17.3%,-9.0%
CCN(CC)C(=O)Cn1c(=O)n(Cc2ccc(C(=O)NCCCOC)cc2)c(=O)c2ccccc21,34.7%[activator],27.6%
COc1ccc(C(c2c(NC(=O)c3ccco3)sc(C)c2C)N2CCOCC2)cc1 (stereo not drawn),-9.8%,-9.7%
Cc1ccc2nc(/C(C#N)=C\c3ccc(N4CCOCC4)o3)[nH]c2c1,16.8%,i
CC(C)(C)NC(=O)C(c1ccc(O)cc1)N(C(=O)CCC(=O)Nc1ccccn1)c1ccc(F)cc1 (stereo not drawn),-18.9%,-17.5%
Cc1c(C(=O)NCc2ccc3c(c2)OCCO3)sc(=O)n1Cc1ccccc1C#N,29.7%,5.1%
COc1ccc(NC(=O)CNCc2cccs2)c(OC)c1,?,-6.7%
COc1ccc2[nH]c3c(c2c1)CCN1C(=O)C(CC(=O)NCC24CC5CC(CC(C5)C2)C4)C[C@H](C(=O)N(C(C)C)C(C)C)[C@@]31C (stereo partly drawn),?,?
CN(C)CCCNC(=O)C(=O)NCC1CCCO1 (stereo not drawn),-13.2%,-12.1%
CCc1nonc1NC(=O)c1oc2cc(C)c(C)cc2c1C,-11.2%[7.34 µM],-5.8%[7.34 µM]
COC(=O)C[C@H]1CC[C@@H](NC(=O)Nc2ccc3c(c2)OCO3)[C@@H](CO)O1,i,-18.5%
COc1ccc(N2C(=O)C(F)(F)C2c2ccccc2F)cc1 (stereo not drawn),i,-2.4%
COc1ccc(S(=O)(=O)NCc2cccn2Cc2cccc(C)c2)cc1Cl,i,-28.8%
CCCCCCCCCCCCCCCCCCOCC(O)CO (stereo not drawn),30.6%[activator],35.3%[activator]
O=S(=O)(N1CCOCC1)N1CCOCC1,-3.6%,-4.0%
Fc1ccc(Oc2cnns2)cc1,-2.4%,-9.4%
COc1ccc(N(CC(=O)Nc2cc(C)on2)S(=O)(=O)c2ccc(Cl)cc2)cc1,.,-12.0%
COc1ccc(CNC(=O)C2CCN(C(=O)N3CC(C)Oc4ccc(C)cc43)CC2)cc1 (stereo not drawn),-6.8%,-12.7%
CCOC(=O)c1ccc(NC(=O)CSc2nnc(NC(=O)c3ccc(S(=O)(=O)N4CCOCC4)cc3)s2)cc1,i,-8.6%
CC1=C(C(=O)Nc2ccccc2)C(c2ccccc2)n2nc(-c3ccco3)nc2N1 (stereo not drawn),-0.1%,14.0%
CC1(C)CC(=O)c2sc(N3CCCCC3)nc2C1,.,-8.2%
O=C(COc1ccccc1Cl)Nc1cc(-c2ccccc2F)nn1-c1ccccc1,-22.1%,-25.1%
Cc1cc(=O)oc2cc(OCC(=O)NC3CCCCC3)c(Cl)cc12,-9.0%,0.0%
COc1cc(/C=N/NC(=O)c2ccncc2)ccc1OC(=O)c1cccc(F)c1,-19.6%,-8.4%
CC(C)(C)n1ncc2c(=O)n(CC(=O)NCc3ccccc3Cl)cnc21,.,-5.4%
CC1CCN(c2ncnc3c2nnn3C)CC1,i,-11.0%
CC(C)c1ccc2[nH]c(O)c(N=NC(=O)c3cccc(S(=O)(=O)Nc4cccc(Cl)c4)c3)c2c1,-14.4%,-7.9%
Clc1ccccc1CSc1nnc(Cn2cnc3ccccc32)n1-c1ccccc1,?,-18.7%
CCOC(=O)C1(O)CC(C)=NN1C(=O)c1cccc(Br)c1 (stereo not drawn),-4.9%,-20.9%
CC(CN1CCN(CC(C)C(=O)c2ccccc2)CC1)C(=O)c1ccccc1 (stereo not drawn),-13.0%,-14.0%
CN(Cc1cccc(Cl)c1Cl)C(=O)c1ccccc1SCC(=O)N1CCCC1,-22.8%,-18.8%
COc1ccccc1CN1C(=O)C(=O)N(Cc2cccc(C)c2)C1=O,i,-8.2%
CCOc1ccc(CCNC(=O)Cn2ncn3c(cc4ccccc43)c2=O)cc1OCC,-10.7%,-9.7%

# Complete entries from above:
# Results for `COc1ccccc1CN1C(=O)C(=O)N(Cc2cccc(C)c2)C1=O` : VACV mCherry inh: i; Vaccinia Venus: -8.2%
# Results for `Clc1ccccc1CSc1nnc(Cn2cnc3ccccc32)n1-c1ccccc1` : VACV mCherry inh: ?; Vaccinia Venus: -18.7%

# (listing goes on)
SMILES,VACV mCherry inh,Vaccinia Venus
CC1(Cc2cccc(C(F)(F)F)c2)C(=O)Nc2c(Cl)ccc(Cl)c21 (stereo not drawn),-0.8%,5.5%
COc1ccc(OC)c(NC(=O)/C=C/c2ccc(S(=O)(=O)N3CCOCC3)cc2)c1,-14.6%,-9.9%
O=C(NC1CCCC1)C(c1ccsc1)N(C(=O)Cc1cccs1)c1cccc(F)c1 (stereo not drawn),-12.9%,-1.4%
Cc1cccc(-n2nc([N+](=O)[O-])c(N3CCN(C(=O)c4ccco4)CC3)[n+]2[O-])c1,-27.5%,-11.3%
CCc1nn2c(N3CCOCC3)cc(C)nc2c1-c1ccccc1,-3.9%,-17.2%
COc1ccc(-c2coc3c(C(=O)Nc4cccnc4)cccc23)c(C)c1,8.9%,-21.5%
CC1CC(C)CN(C(=O)CCc2ccccc2)C1 (stereo not drawn),-5.1%,2.7%
COc1cc2c(NC3CCN(C)CC3)nc(N3CCCN(C)CC3)nc2cc1OCCCCCN,-23.5%,?
CC(=O)/C(=N/Nc1ccccc1)Sc1nnc(C(O)c2ccccc2)n1-c1ccccc1 (stereo not drawn),-11.9%,-20.7%
CCCCCc1cc(=O)oc2c(C(CCN(CC)CC)c3ccc(OC)cc3)c(OC)cc(OC)c12 (stereo not drawn),-15.4%,?
Cc1cc(=O)n2c3ccccc3n(CC(O)CN3CCCCC3)c2c1C#N (stereo not drawn),13.1%,-6.2%
C=CCNC(=S)NNC(=O)c1cc(C)nc2ccccc12,-12.7%,-7.3%

# Some of the entries so far, with values under each structure.
# Below each SMILES – VACV mCherry inh, Vaccinia Venus
COc1cc2c(NC3CCN(C)CC3)nc(N3CCCN(C)CC3)nc2cc1OCCCCCN
→ -23.5%, ?
COc1ccc(-c2coc3c(C(=O)Nc4cccnc4)cccc23)c(C)c1
→ 8.9%, -21.5%
CCOc1ccc(CCNC(=O)Cn2ncn3c(cc4ccccc43)c2=O)cc1OCC
→ -10.7%, -9.7%

# Next part:
SMILES,VACV mCherry inh,Vaccinia Venus
CCC(C)NC(=O)c1c(-c2ccccc2)c(-c2ccccc2)nn(C)c1=O (stereo not drawn),3.1%,4.8%
CC1CCN(C(=O)c2cc(-c3ccccc3O)on2)CC1,-22.7%,-14.3%
COCCNc1nc(NCc2cccc(OC)c2)c2sccc2n1,?,-21.3%
c1ccc(CSc2ccc(-c3cccs3)nn2)cc1,?,-16.6%
O=C(NCCc1ccc(Cl)cc1)c1cc2ccccn2n1,-5.1%,-2.8%
CCOC(=O)c1[nH]c2ccc(C)cc2c1NC(=O)CN1CCCCC1,.,-30.0%
CC(=O)Nc1ccc(S(=O)(=O)N(C)CC(=O)Nc2nc3ccccc3[nH]2)cc1,-3.7%,-4.0%
COc1cc(SC)ccc1C(=O)Nc1ncc(Cl)cc1Cl,-11.4%,-0.6%
COc1cccc(OC)c1OCC(C)CNCC1CCCO1 (stereo not drawn),?,?
O=C(CC1NCCNC1=O)Nc1ccc2c(c1)OCCO2 (stereo not drawn),-14.0%,-2.4%
N#Cc1ccc(C23OCCN2CCn2nc4ccccc4c23)cc1 (stereo not drawn),-2.8%,-9.4%
O=C(OC1CCOC1=O)C1CCN(S(=O)(=O)c2c(Cl)cccc2Cl)CC1 (stereo not drawn),-16.6%,-14.6%
COc1cc(OC)c(C(=O)N2CCCC2)cc1OC,-0.6%,-8.7%
O=C(Cc1cccc(NC(=O)C2CCCN(C(=O)C3CC3)C2)c1)Nc1cccc(C(=O)N2CCCC2)c1 (stereo not drawn),-6.7%,-8.4%
COc1ccc(CNC(=O)[C@H](Cc2ccccc2)NC(=O)C2CCN(C(=O)[C@H](C)N)CC2)cc1,-6.7%,-8.9%
C=CCN=C(NC#N)SCc1ccccc1,i,-2.8%
Cc1nc(SCC(=O)O)c(C#N)c(C)c1CC(=O)c1ccccc1,i,-13.9%
CCn1c(SCC(=O)N2CCN(c3ccccc3)CC2)nnc1-c1c[nH]c2ccccc12,?,?
Cc1cc(=O)oc2cc(OCC(=O)OCC(=O)NCCc3ccccc3)ccc12,-11.4%,-2.1%
COc1ccc(CNC(=O)CSc2nnc3c(n2)[nH]c2ccc(C)cc23)cc1,-1.9%,3.0%
N#Cc1ccc(-c2ccc(OCC(=O)NCC(=O)Nc3ccc(F)c(F)c3F)cc2)cc1,i,-13.9%
Cc1ccc(C(=O)C2CCN(CC(=O)Nc3ccccc3C)CC2)cc1,-2.2%,-6.2%
COc1ccc(OCC(O)CNS(=O)(=O)c2ccc(NC(C)=O)cc2)cc1 (stereo not drawn),-17.6%,-10.3%
Cc1ccc(OCC(=O)N2CC3(C)CC2CC(C)(C)C3)cc1 (stereo not drawn),-5.7%,-22.0%
CNC(=O)c1ccc(-c2ccccc2)s1,.,-12.5%
CN(Cc1ccccc1)Cc1cc(=O)oc2ccc3ccccc3c12,i,-1.4%
CCCOc1cc(C)c(Cl)cc1S(=O)(=O)N(CC)CC,?,-29.3%
Cn1c(SCC(=O)N2CCc3ccccc32)nc2cccnc21,-11.0%,-14.9%
Cc1ccc(S(=O)(=O)N2CCN(C(=O)c3ccc(Br)o3)CC2)c(C)c1,i,-0.4%
CCN(C(=O)CSc1nc2ncccc2[nH]1)c1ccc(C(C)C)cc1,-8.3%,-7.3%
COCc1nnc(NC(=O)CS(=O)(=O)Cc2ccccc2)s1,-6.9%,-21.6%
Cc1ccc(C(C(=O)NC2CCCC2)N(C(=O)CNC(=O)c2ccco2)c2ccccc2)o1 (stereo not drawn),1.6%,2.5%
CCCCN(C)C(=O)Cn1cnc2sc(C)c(S(=O)(=O)N3CCN(c4ccccc4OC)CC3)c2c1=O,-13.9%&-5.3%,4.7%&-3.1%
O/N=C/c1ccccc1Oc1ccccc1,.,-25.9%
Cc1[nH]c2ccccc2c1C(=O)/C=C\c1ccccc1Cl,?,?
COc1ccc(N2CCN(C3CC(=O)N(Cc4ccc(N5CCCC5=O)cc4)C3=O)CC2)cc1 (stereo not drawn),?,?

# Given bar-delimited: part of the list above
SMILES | VACV mCherry inh | Vaccinia Venus
CC(CN1CCN(CC(C)C(=O)c2ccccc2)CC1)C(=O)c1ccccc1 (stereo not drawn) | -13.0% | -14.0%
Cc1cccc(-n2nc([N+](=O)[O-])c(N3CCN(C(=O)c4ccco4)CC3)[n+]2[O-])c1 | -27.5% | -11.3%

# Further records:
SMILES,VACV mCherry inh,Vaccinia Venus
COc1ccc(Nc2oc(-c3ccccc3F)nc2C#N)cc1,-21.3%,-13.4%
Cc1cc(NC(=O)C2CCCN(S(=O)(=O)c3cn(C)cn3)C2)ccc1Br (stereo not drawn),-15.4%,-10.6%
CN(C(=O)COC(=O)COc1ccc2ccccc2c1)c1ccccc1,i,-13.7%
O=C(Nc1ccc2c(c1)Cc1ccccc1-2)c1ccccc1F,-0.1%,-13.7%
COc1ccc(-c2c(NCCc3ccccc3)c(=O)c2=O)cc1,6.5%,2.4%
CC1CCCN(c2nc(N(C)c3ccccc3)nc(N)c2[N+](=O)[O-])C1 (stereo not drawn),?,-25.1%
O=C(CSc1ccc2nnc(-c3ccc(F)cc3)n2n1)N1CCOCC1,i,-13.0%
O=c1oc2ccccc2n1CCCCCn1c(=O)oc2ccccc21,.,-14.8%
CCN(C(=O)COc1cc(=O)n(C)c2ccccc12)c1cccc(C(F)(F)F)c1,-13.2%,-6.8%
CC(C)Oc1ccccc1/C=N/NC(=O)c1ccc(F)cc1,-13.3%,-8.6%
Clc1ccc(CCNC(c2cccc(Cl)c2)c2nnc(-c3ccccc3)o2)cc1 (stereo not drawn),-4.7%,-3.0%
CCCN(CCC)CC(O)Cn1cc(/C=C/C(=O)c2ccc(OCC)cc2)c2ccccc21 (stereo not drawn),?,?
O=C(N/N=C/c1cccnc1)c1ccccc1OCc1cccc(Br)c1,2.4%,-2.2%
COc1ccc(OC)c(-c2nc(C(N)=O)c3[nH]c(=O)n(-c4ccc(F)cc4)c3n2)c1,i,-15.4%
CCOc1ccc(NC(=O)NCCN2CCN(c3cc(Cl)ccc3C)CC2)cc1,-1.5%,-0.8%
Cc1ccc(NC(=O)CCc2ccccc2)cc1S(=O)(=O)N1CCOCC1,-0.3%,-23.7%
CC(C)OC(=O)N(C)C[C@@H]1OCc2cn(nn2)CCCC(=O)N([C@H](C)CO)C[C@H]1C,-13.0%,-6.2%
O=S(=O)(Nc1ccc(Oc2ncccn2)c(Cl)c1)c1ccc(F)cc1,-19.4%,-8.1%
CC(C)C(NC(=O)CSc1ccc(Cl)cc1)C(C)C,-15.6%,-9.0%
CSCCC(NS(=O)(=O)c1ccc(C)cc1)C(=O)N1CCN(C(c2ccccc2)c2ccccc2)CC1 (stereo not drawn),?,-28.4%
CSc1ccccc1NC(=O)C1=COCCO1,i,-5.0%
Cc1cc(C)c(Cn2c3ccccc3c3cnn(CC(=O)N4CCCCCC4)c(=O)c32)c(C)c1,-14.6%,-8.9%
O=C(CSc1nc2c([nH]c3ccccc32)c(=O)n1-c1ccccc1)c1ccc(Cl)cc1,-19.5%,-15.8%
O=C(NCCc1ccc(Cl)cc1)c1cc(-c2ccccc2)n[nH]1,-17.5%,-25.3%
Clc1nc(Cl)c2ncn(-c3ccccc3)c2n1,i,-14.5%
COc1ccc(CN(CC(=O)NCCc2ccccc2)C(=O)CCC(=O)Nc2ccccn2)cc1,i,-13.3%

# Screening data as filed in PubChem.
